miR-21 reporter: raises the signal of a miR-21 reporter. HeLa miR-21 FLuc reporter, luciferase, 48 h. Potency, µM (doses to about 38.3 µM), inactives show at the top dose reporter change, positive = more light. AID 2288. 340,000 tested, under 10 active; active = well fitted rising curve with a large enough effect; inconclusive = small, poorly fitted or top-dose-only effect; inactive = no such curve, though single readings can be large or run the other way;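 further: % of control where 0% means no effect; miR-21 action dims this reporter so a rising signal means less miR-21 action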
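Luminescence from a firefly luciferase reporter carrying a miR-21 binding site downstream, stably expressed under a CMV promoter in HeLa cells that make miR-21 endogenously, reports miRNA modulation after 48 h compound exposure up to approximately 40uM final.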
GLA inh pH 4.5: alpha-galactosidase A (human) inhibition, pH 4.5; purified enzyme, 4-MU-alpha-Gal fluorescence, pH 4.5; AID 1467; 230,000 tested, under 10 active; activity change, negative = inhibition, % at 105 µM; P06280; inconclusive = small, poorly fitted or top-dose-only inhibition, or a rising curve; inactive = flat fitted curve, though single readings scatter; no compound was filed as active;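 further: 0% = full activity with enzyme and -100% = basal without enzyme; dose as in the result columns while the protocol names 77 µM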
Rango dissoc inh: inhibition of RanGTP-driven Rango-importin beta dissociation. 340,000 tested, 0.071% active. O95149+P62826. Potency, µM (top dose mostly 46.1 µM), for inactives: top-dose activity change, negative = inhibition. AID 540253. Biochemical FRET Rango-importin beta, RanGTP-induced dissociation; active means falling FRET ratio curve, often poorly fitted, with flat reads before Ran was added; inconclusive means other falling curves, or compound fluorescence or quenching; inactive means flat or rising ratio curve;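 further: potency means the concentration at half of the fitted maximal effect; % of control where 0% means no effect; nearly all actives have a fitted effect of over 45% in size; -100% = wells without RanGTP and RCC1; the record marks most hits as doubtful in a second field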
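Recombinant Rango FRET biosensor (EYFP–snurportin 1 IBB–cerulean CFP10) at 0.1 uM premixed with 0.25 uM importin beta in PBS, 1 mM DTT, 0.02% Tween-20, 0.1% BSA. Compound added 5 min; RanGTP-RCC1 (0.6 uM Ran, 2 mM GTP, 0.2 uM RCC1) then triggers release, read at 45 min.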
Rango complex inh: prevents formation of the Rango-importin beta complex; Rango CFP/YFP FRET sensor + importin beta, 45 min; Potency, µM (doses to about 92.2 µM), inactives show top-dose inhibition of complex formation; 340,000 tested, 0.031% active; AID 540263; active = rising FRET ratio curve, often small or poorly fitted; inconclusive = mostly compound fluorescence or quenching in the first reads; inactive = flat curves in all reads;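 further: potency means the concentration at half of the fitted maximal effect; 0% = DMSO wells and 100% = buffer wells lacking importin beta; nearly all actives have a fitted effect of over 15% in size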
Target sequence (Q14974 whole entry, looked up): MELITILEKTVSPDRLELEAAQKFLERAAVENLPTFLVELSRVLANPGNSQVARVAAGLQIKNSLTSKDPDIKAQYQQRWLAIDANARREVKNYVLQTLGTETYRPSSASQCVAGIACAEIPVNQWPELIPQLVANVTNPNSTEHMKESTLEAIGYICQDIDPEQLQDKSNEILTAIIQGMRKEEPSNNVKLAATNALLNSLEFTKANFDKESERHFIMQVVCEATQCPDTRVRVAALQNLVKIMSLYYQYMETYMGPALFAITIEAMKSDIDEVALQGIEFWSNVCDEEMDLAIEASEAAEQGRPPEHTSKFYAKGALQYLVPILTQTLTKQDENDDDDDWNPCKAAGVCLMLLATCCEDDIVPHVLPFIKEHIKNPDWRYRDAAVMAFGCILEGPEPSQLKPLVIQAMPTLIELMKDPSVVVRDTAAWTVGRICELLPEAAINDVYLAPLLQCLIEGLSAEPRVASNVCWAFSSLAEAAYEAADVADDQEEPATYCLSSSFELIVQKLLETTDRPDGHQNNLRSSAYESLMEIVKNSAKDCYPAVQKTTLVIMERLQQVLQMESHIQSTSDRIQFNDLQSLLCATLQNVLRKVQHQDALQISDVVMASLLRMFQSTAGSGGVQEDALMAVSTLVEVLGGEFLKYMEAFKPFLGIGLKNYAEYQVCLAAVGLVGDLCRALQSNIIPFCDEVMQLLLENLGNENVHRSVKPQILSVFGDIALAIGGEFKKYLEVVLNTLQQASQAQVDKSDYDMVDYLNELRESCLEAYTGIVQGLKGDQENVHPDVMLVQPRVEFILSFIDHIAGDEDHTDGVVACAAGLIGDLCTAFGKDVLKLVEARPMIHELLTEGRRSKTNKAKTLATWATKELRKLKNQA
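Inhibition scored from the CFP 486 nm/YFP 530 nm FRET ratio 45 min after adding 0.125 microM importin beta to 50 nM Rango biosensor preincubated 5 min with compound (room temperature, PBS with DTT, Tween-20, BSA). No-importin wells as positive control.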
* marks the source's active call; other numbers are inactive results; ? = inconclusive; · = not tested or not shown. The list is partial. The share of hits here may be higher or lower than overall.

SMILES	miR-21 reporter	GLA inh pH 4.5	Rango dissoc inh	Rango complex inh
CCCC(=O)OCC(=O)Nc1cc([N+](=O)[O-])ccc1OC	-1%	7	42%	7.0%
Cc1ccccc1CN1C(=O)/C(=C\c2ccc(C(=O)NCCN3CCOCC3)cc2)Sc2ccccc21	3%	·	?	?
COc1ccc(N(CC(=O)Nc2cccc(C)c2)S(=O)(=O)c2ccc(C)cc2)cc1OC	-6%	·	29%	-5.9%
COc1ccc(NS(=O)(=O)c2cc(NC(=O)Cc3c(F)cccc3Cl)ccc2OC)cc1	·	·	-12%	0.0%
O=S1(=O)CCOC[C@H](CC2CCCCC2)N1Cc1cccc(F)c1	1%	·	8%	-0.4%
Cc1ccc2oc(C(=O)NC3CCS(=O)(=O)C3)c(C)c2c1 (stereo not given)	-37%	·	37%	5.1%
Cc1ccc2nccc(C(=O)N3CCCC(N4CCN(c5ccc(F)cc5)CC4)C3)c2c1 (stereo not given)	-2%	·	-1%	0.6%
CCCCN(C)C(=O)c1nc2ccccn2c1CN1CCC[C@H]1C(=O)OC	-2%	-29	7%	2.0%
O=C(C1=C(O)C(=O)N(CC2CCCO2)C1c1cccc(O)c1)c1ccco1 (stereo not given)	0%	·	10%	-3.3%
CC(C)OP(=O)(OC(C)C)C(Nc1ccccc1)c1cccnc1 (stereo not given)	1%	2	1%	-0.9%
CCOC(=O)c1sc(NC(C)=O)c(C(=O)OCC)c1C	-1%	1	5%	-1.2%
CCOC(=O)c1cnn2c(C)cc(-c3ccccc3)nc12	-49%	-2	17%	-1.8%
COc1ccc(-c2noc(CCCC(=O)NC3CCCCC3)n2)cc1OC	0%	·	1%	3.4%
Cc1cc(Cl)c(OCCOCCN2CCC(C)CC2)c(Br)c1	-1%	-4	-14%	-1.3%
COC(=O)Cn1ncc2c3ccccc3n(C)c2c1=O	-45%	1	14%	7.7%
O=C(Cc1ccc(NC(=O)C2CCCN(C(=O)c3ccccc3)C2)cc1)Nc1ccc(C(=O)N2CCOCC2)cc1 (stereo not given)	·	·	-8%	0.9%
Cc1nc(Cl)c2c(n1)N(CC(N)=O)C(=O)CO2	-9%	2	-23%	-0.5%
Cc1cc(C)nc(-n2nc(C)cc2NC(=O)c2cccc(S(=O)(=O)N(C)C)c2)n1	-1%	5	0%	0.4%
O=C1OCCC1Sc1nc2ccccc2c(=O)n1Cc1ccc(F)cc1 (stereo not given)	-1%	-3	15%	3.8%
CC(=O)c1ccc(NC(=S)N2CCN(CCN3C(=O)c4cccc5cccc(c45)C3=O)CC2)cc1	1%	6	0%	-0.2%
Nc1nc(SCC(=O)Nc2ccc(Cl)cc2C(F)(F)F)n[nH]1	1%	·	2%	-2.6%
COc1ccc(C(=O)CCC(=O)NCCc2c[nH]c3ccccc23)cc1	-2%	·	-22%	5.6%
O=C1C=C(c2ccc(C(=O)O)cc2)C[C@@H](c2ccc(Cl)cc2)C1	·	·	6%	1.0%
COc1ccccc1NC(=O)/C(C#N)=C/c1cccnc1	0%	·	-12%	0.2%
C=CCNC(=S)NNC(=O)COc1cccc(Cl)c1	-16%	-6	0%	-1.2%
CN(CCOc1ccc(Cl)cc1)C(=O)c1cc([N+](=O)[O-])ccc1N1CCOCC1	·	·	-2%	-0.7%
c1ccc(-c2ncnc3cc4n(c23)CCC4)cc1	-17%	1	-1%	-1.9%
Cc1ccccc1OCC(=O)OCC(=O)NCCc1ccccc1	·	·	-2%	0.0%
CN(CC1CCCO1)S(=O)(=O)c1ccc(C(=O)N2CCN(c3ccccc3)CC2)cc1 (stereo not given)	0%	-6	6%	5.7%
CC1CC(C)(C)CC2(C1)NC(=O)N(CC(=O)NCCc1c[nH]c3ccccc13)C2=O (stereo not given)	-1%	4	4%	-1.3%
CC(=O)c1c(C)[nH]c(C(=O)OCC(=O)c2ccc3c(c2)NC(=O)CO3)c1C	·	·	11%	-2.5%
Cc1ccc(C2C=C(c3ccccc3)Nc3nc(N4C(=O)CCC4=O)nn32)cc1 (stereo not given)	-11%	5	?	?
Cc1ccc(C)c(OCC(=O)Nc2c(C)n(C)n(-c3ccccc3)c2=O)c1	·	·	7%	0.1%
Oc1ccc(-c2[nH]ncc2-c2ccc(Br)cc2)c(O)c1	1%	·	11%	-1.3%
C/C=C1\COC(C(=O)NCc2ccccc2)(C(F)(F)F)C=C1C=C1CCCCC1 (stereo not given)	·	·	2%	-2.0%
COc1ccc(N2CCN(C(=O)CN3C(=O)NC(C)(C4CC4)C3=O)CC2)cc1 (stereo not given)	·	·	10%	0.3%
CCCCC(=O)Nc1ccc(C(=O)N(CC)c2ccccc2C)cc1	14%	0	0%	-1.2%
CCc1ccc(C(=O)c2cc3ccc(O)cc3oc2=O)cc1	-31%	·	?	?
CCOc1ccc(S(=O)(=O)N2CCCCC2)cc1NS(=O)(=O)c1cccs1	·	·	7%	-0.2%
O=C(NN1C(=O)/C(=C/C=C/c2ccco2)SC1=S)c1ccncc1	0%	?	?	?
COc1ccccc1OCc1nnc(SCC(=O)Nc2ccc(N3CCOCC3)cc2)n1C	-4%	·	-14%	0.6%
COC(=O)CSc1nnc(NC(=O)/C=C\c2ccc3c(c2)OCO3)s1	-3%	3	-3%	?
O=C(NC12CC3CC(CC(C3)C1)C2)N1CCC(n2nnc3ccccc32)CC1	-3%	8	1%	-0.6%
COc1cc(C(=O)/C=C/c2cccnc2)ccc1O	25%	·	5%	7.2%
C=CCNC(=O)c1ccc(CNS(=O)(=O)c2ccc(NC(C)=O)cc2)cc1	-1%	11	-10%	-0.4%

The final four records of the section before come first, to join the parts:
SMILES	miR-21 reporter	GLA inh pH 4.5	Rango dissoc inh	Rango complex inh
COC(=O)CSc1nnc(NC(=O)/C=C\c2ccc3c(c2)OCO3)s1	-3%	3	-3%	?
O=C(NC12CC3CC(CC(C3)C1)C2)N1CCC(n2nnc3ccccc32)CC1	-3%	8	1%	-0.6%
COc1cc(C(=O)/C=C/c2cccnc2)ccc1O	25%	·	5%	7.2%
C=CCNC(=O)c1ccc(CNS(=O)(=O)c2ccc(NC(C)=O)cc2)cc1	-1%	11	-10%	-0.4%
CC(C)(C)c1ccc(C2SCC(=O)N2c2cccc(C(=O)O)c2)cc1 (stereo not given)	-13%	·	1%	0.3%
Cc1onc(-c2ccccc2)c1C(=O)OCC(=O)N1CCC(C)CC1	·	·	16%	-3.2%
CN(C)S(=O)(=O)c1cccc(C(=O)Nc2ccccc2[N+](=O)[O-])c1	-15%	3	3%	-1.2%
CCOc1ccc(C(=O)Nc2cnn(Cc3ccc(Cl)c(Cl)c3)c2)cc1	20%	1	-10%	0.4%
COC(=O)c1c(NC(=O)/C=C/C(=O)O)sc(C)c1-c1ccc(C(C)C)cc1	20%	4	44%	0.4%
CCCN1CCc2c(sc(NC(=O)CCS(=O)(=O)c3ccccc3)c2C(N)=O)C1	1%	·	?	?
O=C(COC(=O)C1CCN(c2ccc(C(F)(F)F)cn2)CC1)NC1CCCCC1	·	·	-6%	2.1%
Cc1ccc(-n2nc3c(c2NC(=O)c2ccc4c(c2)OCO4)CSC3)cc1	-6%	0	2%	3.0%
COc1ccc(-c2cc3c(=O)n(CC(=O)N4CCCC4)ncn3n2)cc1	0%	·	13%	-0.8%
CC(C)n1nc(C(=O)OCC(=O)N2CC(=O)Nc3ccccc32)c2ccccc2c1=O	-2%	-4	6%	0.2%
C/C(=N\NC(=O)COc1ccccc1[N+](=O)[O-])c1cccc(NC(=O)c2ccncc2)c1	2%	·	0%	-1.1%
C=C(C)C1CC=C(C)/C(=N/NC(=O)c2ccc(NC(=O)CC)cc2)C1 (stereo not given)	-1%	1	-9%	5.5%
CC(=O)C1[C@H](N(C)C)CC2C3CC=C4CC(O)CC[C@]4(C)C3CC[C@@]21C (stereo not given in full)	0%	·	14%	-1.7%
Cn1c(=O)c2c(nc(CN3CCN(c4ccccc4)CC3)n2Cc2ccccc2Cl)n(C)c1=O	-6%	-4	0%	-2.1%
COc1ccccc1Nc1nc(N)nc(CN2CCC(Cc3ccccc3)CC2)n1	-10%	-14	-10%	-2.2%

Single records (already shown). Order of values: miR-21 reporter | GLA inh pH 4.5 | Rango dissoc inh | Rango complex inh
Listed for CC(C)n1nc(C(=O)OCC(=O)N2CC(=O)Nc3ccccc32)c2ccccc2c1=O = -2% | -4 | 6% | 0.2%
Listed for C=C(C)C1CC=C(C)/C(=N/NC(=O)c2ccc(NC(=O)CC)cc2)C1 (stereo not given) = -1% | 1 | -9% | 5.5%
Listed for Cn1c(=O)c2c(nc(CN3CCN(c4ccccc4)CC3)n2Cc2ccccc2Cl)n(C)c1=O = -6% | -4 | 0% | -2.1%
Listed for Cc1ccc(-n2nc3c(c2NC(=O)c2ccc4c(c2)OCO4)CSC3)cc1 = -6% | 0 | 2% | 3.0%
Listed for C/C(=N\NC(=O)COc1ccccc1[N+](=O)[O-])c1cccc(NC(=O)c2ccncc2)c1 = 2% | · | 0% | -1.1%

(further entries)
SMILES	miR-21 reporter	GLA inh pH 4.5	Rango dissoc inh	Rango complex inh
Cc1[nH]c2ccccc2c1C(=O)C(C)OC(=O)c1ccccc1NCCO (stereo not given)	·	·	-12%	-0.5%
Cc1ccc(Nc2nc(N)nc(CCl)n2)cc1	26%	-3	1%	6.6%
O=C(NC1CCCCC1)C1CCCN(S(=O)(=O)c2cccs2)C1 (stereo not given)	-4%	2	-7%	-0.1%
O=C(CCC(=O)Nc1ccc(F)cc1)N/N=C/c1ccccc1	-5%	·	-6%	-2.9%
COc1ccc(S(=O)(=O)CC(=O)c2cc(C)c(O)c(C)c2)cc1	5%	·	-18%	?
COc1ccc(CN(C)S(=O)(=O)c2nnc(NC(=O)c3ccccc3OC)s2)cc1OC	-7%	·	16%	0.4%
COc1cccc(NC(=O)COC(=O)CNS(=O)(=O)c2c(F)cccc2F)c1	-3%	-2	1%	5.9%
COc1ccc(/C=c2\sc3nc(-c4ccccc4)c(-c4ccccc4)n3c2=O)cc1OC	-9%	-11	-3%	?
O=C(COC(=O)/C=C/c1cccc(F)c1)NC1CC1	·	·	2%	-2.3%
CN1CCN(C(=O)Nc2ccccc2CC[N+](=O)[O-])CC1	-8%	-2	-19%	?
CC(=O)c1ccc(N2CC(C)(C)C2=O)cc1	-11%	3	7%	0.0%
CN1CC(=O)Nc2ccc(Br)cc2C1=O	2%	·	21%	2.0%
Cc1cc(C)cc(NC(=S)NCCCO)c1	-2%	-4	13%	1.2%
CCOc1ccccc1NC(=O)c1cccc(NC2=NC3CS(=O)(=O)CC3S2)c1 (stereo not given)	-3%	·	-6%	10%
COc1cc(C(=O)Nc2cc(C)nn2-c2ccccc2)cc(OC)c1OC	8%	·	-12%	4.4%
CCOC(=O)c1cccc(NC(=O)c2cccnc2)c1	-8%	1	?	2.8%
O=c1[nH]c2ccccc2n2c(-c3ccccc3)nnc12	-30%	2	?	-3.3%
COc1ccc(S(=O)(=O)N2CCCCCC2)cc1C(=O)N(C)CC(=O)Nc1ccccc1C(F)(F)F	·	·	31%	-0.2%
Cc1noc(C)c1CSCC(=O)Oc1ccc(N(C)S(=O)(=O)c2ccc(Cl)cc2)cc1	·	·	-2%	6.8%
O=C(Nc1cccc(S(=O)(=O)N2CCCCCC2)c1)c1ccc2c(c1)OCO2	6%	-15	4%	-1.2%
Cc1ccc(NNC(=O)c2c(F)cccc2Cl)cc1Cl	0%	1	-6%	1.1%
Cc1cc(CNC(=O)CC2C(=O)NCCN2Cc2ccccc2C(F)(F)F)on1 (stereo not given)	0%	6	-6%	?
CCN(CC)CCNC(=O)c1ccc(CS(=O)(=O)c2ccccc2C)o1	-3%	·	-1%	3.7%
CC(=O)c1cccc(NC(=O)c2ccccc2N(Cc2ccccc2)S(C)(=O)=O)c1	0%	·	-3%	1.5%

Ordered by length of the SMILES (lowest first): some entries from above.
SMILES	miR-21 reporter	GLA inh pH 4.5	Rango dissoc inh	Rango complex inh
COc1cc(C(=O)Nc2cc(C)nn2-c2ccccc2)cc(OC)c1OC	8%	·	-12%	4.4%
COC(=O)CSc1nnc(NC(=O)/C=C\c2ccc3c(c2)OCO3)s1	-3%	3	-3%	?
CN(C)S(=O)(=O)c1cccc(C(=O)Nc2ccccc2[N+](=O)[O-])c1	-15%	3	3%	-1.2%
